RanGTP-Imp inh – inhibitors of RanGTP-importin-beta interaction, primary screen, biochemical, FRET, CFP-Ran, YFP-importin-beta, homogeneous; AID 2216; inhibition, % (test concentration not listed); hit rate 1.1% among 300,000; cell-free CFP-Ran/YFP-importin-beta FRET ratio;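 active = most replicates above 15%; inconclusive = exactly half above 15%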;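 note: 0% = DMSO wells and 100% = Ran loaded with GDP instead of GTP; wells of about 40 µL received 100 nL stock; the first replicate is given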
ALR H2O2 inh – inhibitors of human sulfhydryl oxidase ALR; purified ALR, DTT oxidation, H2O2 HRP-luminol luminescence; inhibition, % (no concentration beside the values); hit rate 3.8% among 290,000;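 active = mean and each replicate at 75% or more; inconclusive = only one of the two met; inactive = neither met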;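 note: stock transfer was 7.5 nL into about 7.5 µL; 0% = neutral wells and 100% = wells with inactivated enzyme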
Vif TR-FRET – inhibitors of Vif binding to APOBEC3G peptide, primary screen, biochemical, TR-FRET, GST-Vif 1-94, biotin-A3G peptide, dose response retest (AID 1117319); TR-FRET GST-Vif / biotin-A3G peptide binding; higher % means a stronger effect; test concentration not given here; strong numbers were not always called active; one-dose inhibition, %; IC50 in µM for titrated hits; hit rate 0.57% among 260,000;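 active = above the screen mean plus three standard deviations and confirmed in dose response; inconclusive = results disagree or hit not tested in dose response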;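 note: Vif residues 1-94 fused to GST binding biotinylated APOBEC3G peptide 110-148; 0% = full assay without inhibitor and 100% = GST in place of GST-Vif; retest series ran down from 100 µM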
HNF4A DNA FP – change in binding of human HNF4 alpha to DNA; P41235; HNF4a-FITC DNA binding, fluorescence polarization, 1 h; AID 1224865; activity change, % at 10 µM; hit rate 0.3% among 360,000; in the data active = activity change above about 30%, passing the limit was not always enough;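 note: controls were the assay level and a saturating level of protein; the project sought stronger binding though the title names inhibitors; some compounds called inactive have numbers as strong as hits; positive values seem to mean higher polarization but the record does not say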
Calb FLC – C. albicans growth modulation with fluconazole; growth inhibition, % (no concentration beside the values); hit rate 0.57% among 300,000; C. albicans CaCi-2 (fluconazole-resistant clinical isolate) + fluconazole, Alamar Blue growth, 48 h;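 active = most replicates above 75%; inconclusive = exactly half above 75%; inactive = most below 75%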;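 note: all wells also contain fluconazole at 8 µg/ml as a sub-toxic cotreatment; 0% = median of DMSO wells and 100% = median of geldanamycin control wells; wells of about 8 µL received 7.5 nL stock; the first replicate is given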
Beta2AR agonist – activates human beta-2 adrenergic receptor causing internalization. Am2.2-beta2AR cells, FAP receptor internalization, flow cytometry; reference of the scale not given here. response, % (test concentration not listed). hit rate 0.43% among 340,000. AID 504454;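 active = response above a set limit, near 3 SD of response in nonfluorescent compounds, cut at about 42% in these data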;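 note: stock transfer was 100 nL into about 11 µL; a reference agonist was the positive control; negative values mostly stem from fluorescent compounds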
LANA-H2A inh – blocks KSHV LANA binding to histone H2A/H2B; hit rate 0.6% among 320,000; cell-free LANA-H2A/H2B peptide, fluorescence polarization; inhibition, % (concentration not given with the values); in the data active = inhibition mostly above about 10%, no sharp cut-off; inactive = mostly below about 6.7%;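 note: stock transfer was 7.5 nL into about 10 µL; 0% = median of vehicle wells and 100% = median of positive control wells; one replicate is shown; the record names a cut of 25% in any replicate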
Target sequence (Q9QR71 whole entry, looked up): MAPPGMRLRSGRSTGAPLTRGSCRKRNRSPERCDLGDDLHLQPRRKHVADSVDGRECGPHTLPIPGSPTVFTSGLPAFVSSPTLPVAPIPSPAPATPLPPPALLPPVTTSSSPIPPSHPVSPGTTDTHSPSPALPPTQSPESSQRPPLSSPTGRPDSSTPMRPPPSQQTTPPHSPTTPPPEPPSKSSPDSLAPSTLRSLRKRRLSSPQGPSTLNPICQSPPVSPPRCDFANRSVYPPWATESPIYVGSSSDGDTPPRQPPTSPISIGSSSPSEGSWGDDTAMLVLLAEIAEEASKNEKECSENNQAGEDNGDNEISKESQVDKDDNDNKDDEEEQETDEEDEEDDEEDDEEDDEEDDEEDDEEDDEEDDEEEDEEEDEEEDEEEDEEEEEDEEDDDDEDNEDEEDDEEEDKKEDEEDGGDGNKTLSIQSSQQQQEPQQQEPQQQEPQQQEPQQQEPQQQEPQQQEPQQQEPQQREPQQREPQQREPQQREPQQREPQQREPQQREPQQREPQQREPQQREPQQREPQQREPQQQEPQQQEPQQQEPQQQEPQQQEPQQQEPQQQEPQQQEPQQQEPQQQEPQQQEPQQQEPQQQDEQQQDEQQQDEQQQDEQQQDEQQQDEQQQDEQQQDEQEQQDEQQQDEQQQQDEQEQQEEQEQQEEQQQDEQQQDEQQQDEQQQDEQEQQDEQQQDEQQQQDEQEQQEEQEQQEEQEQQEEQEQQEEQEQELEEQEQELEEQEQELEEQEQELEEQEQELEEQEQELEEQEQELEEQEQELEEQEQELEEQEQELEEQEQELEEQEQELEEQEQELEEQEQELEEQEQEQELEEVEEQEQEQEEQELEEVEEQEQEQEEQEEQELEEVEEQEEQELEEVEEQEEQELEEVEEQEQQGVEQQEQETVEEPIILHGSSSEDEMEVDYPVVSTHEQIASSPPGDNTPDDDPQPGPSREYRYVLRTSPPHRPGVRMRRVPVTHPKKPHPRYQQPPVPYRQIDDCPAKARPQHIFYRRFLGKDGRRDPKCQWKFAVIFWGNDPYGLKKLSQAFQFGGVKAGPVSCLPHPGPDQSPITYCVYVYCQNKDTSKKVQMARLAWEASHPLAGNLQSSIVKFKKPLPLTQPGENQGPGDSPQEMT
* = called active by the depositor; ? = inconclusive; . = no result given.

SMILES,RanGTP-Imp inh,ALR H2O2 inh,Vif TR-FRET,HNF4A DNA FP,Calb FLC,Beta2AR agonist,LANA-H2A inh
CCCn1nc(C(=O)Nc2nc3ccccc3[nH]2)c2ccccc2c1=O,0.0,-21,.,5.4,-22,-4,-0.1
COc1ccc(C2(C)NC(=O)N(CC(=O)Nc3ccc4ccccc4c3)C2=O)cc1OC (stereo not given),.,.,-4%,2.4,.,3,.
CC(CNC(=O)CCc1nnc(CCC2CCCCC2)o1)c1ccccc1 (stereo not given),-1.9,-6,3%,2.3,-13,-9,-4.3
O=C(NC1CCCCC1)N1CCN(C(c2ccccc2)c2ccccc2)CC1,-2.8,-6,3%,0.6,-17,10,-2.3
CCN(CC)CCCn1c(C)cc2c(c1=O)C(c1ccc(OC)c(OC)c1OC)C(C#N)=C(N)O2 (stereo not given),4.8,-2,1%,5.2,2,-4,7.8
COc1ccc(-c2nc(-c3cccc(C)c3)no2)cc1OC,1.7,-4,-13%,-3.5,-1,-10,-1.0
Cc1cccc(/C=C2/Sc3ccc(C(=O)N4CCOCC4)cc3NC2=O)c1,1.7,-1,-9%,-2.7,17,11,-4.7
Cc1noc(C)c1C(=O)Nc1cc(Cl)ccc1N1CCOCC1,.,-3,-2%,2.5,.,-3,3.6
CN1CCN(C(=S)c2ccc(Br)cc2)CC1,?,.,.,1.7,-1,8,5.4
O=C(CSc1nnnn1-c1ccccc1)c1ccc(O)cc1O,2.4,7,5%,-0.6,2,-10,-0.3
CC(C)c1cc(C(=O)N2CCCC(N3CCN(c4ccc(F)cc4)CC3)C2)no1 (stereo not given),0.0,31,.,3.1,-19,0,-3.9
Cn1ccnc1CN1CCCCC1C(=O)Nc1ccc(Oc2cccnc2)cc1 (stereo not given),11,-2,0%,5.7,-2,-26,2.6
COc1ccc(NC(=O)CSc2nc3sc4c(c3c(=O)n2-c2ccc(OC)cc2)CCN(C)C4)cc1,1.6,98*,.,5.9,40,10,-1.4
O=C(Nc1cccc(Cl)c1Cl)c1ccncc1,1.6,.,-4%,1.3,-5,-9,2.9
CCOc1ccccc1OCC(O)CNC (stereo not given),0.4,-52,-7%,1.5,-27,-6,0.8
CCn1c(CC(=O)Nc2ccccc2F)nnc1SCC(=O)N1CCN(c2ccccc2)CC1,-5.7,23,0%,4.6,-1,-5,-4.1
O=C(NNC1=NS(=O)(=O)c2ccccc21)c1ccccc1,-2.1,.,0%,-1.7,-4,1,1.9
c1ccc(Cc2ccc(OCCn3cncn3)cc2)cc1,-2.1,6,25%,-0.8,8,-12,-3.7
Cc1ccc(S(=O)(=O)Cc2ccc(C(=O)N3CCC(C(N)=O)CC3)o2)cc1,-3.9,-2,.,3.7,1,7,1.4
COc1ccc(NC(=O)CN(C)C(=O)c2ccc(OCc3ccccc3)c(OC)c2)cc1,-4.5,-2,-5%,-3.4,.,6,-1.3
COc1ccc(C2C3C(C)=NN=C3CC(C)(O)C2C(C)=O)cc1 (stereo not given),-1.4,-1,.,1.8,3,-6,-0.4
COc1ccc(Br)cc1C1Nc2cccc3cccc(c23)N1,5.2,1,11%,-4.0,20,42,-4.7
O=C(CN1C(=O)C2C3C=CC(C3)C2C1=O)Nc1nc2ccccc2[nH]1 (stereo not given),-0.3,-7,6%,-0.7,-1,-3,3.7
Cc1nc(NC(=O)COC(=O)C(NC(=O)c2ccco2)C(C)C)c(Cl)cc1Cl (stereo not given),-4.7,.,10%,-0.3,-20,5,0.9

Arranged by molar mass (rising): some entries from above
SMILES,RanGTP-Imp inh,ALR H2O2 inh,Vif TR-FRET,HNF4A DNA FP,Calb FLC,Beta2AR agonist,LANA-H2A inh
c1ccc(Cc2ccc(OCCn3cncn3)cc2)cc1,-2.1,6,25%,-0.8,8,-12,-3.7
COc1ccc(C2C3C(C)=NN=C3CC(C)(O)C2C(C)=O)cc1 (stereo not given),-1.4,-1,.,1.8,3,-6,-0.4
O=C(CN1C(=O)C2C3C=CC(C3)C2C1=O)Nc1nc2ccccc2[nH]1 (stereo not given),-0.3,-7,6%,-0.7,-1,-3,3.7
Cc1ccc(S(=O)(=O)Cc2ccc(C(=O)N3CCC(C(N)=O)CC3)o2)cc1,-3.9,-2,.,3.7,1,7,1.4
Cc1nc(NC(=O)COC(=O)C(NC(=O)c2ccco2)C(C)C)c(Cl)cc1Cl (stereo not given),-4.7,.,10%,-0.3,-20,5,0.9

Going on with the list:
SMILES,RanGTP-Imp inh,ALR H2O2 inh,Vif TR-FRET,HNF4A DNA FP,Calb FLC,Beta2AR agonist,LANA-H2A inh
O=C(OCN1C(=O)c2ccccc2C1=O)c1ccc(Cl)nc1,-3.0,.,.,1.6,1,-4,10
CCOC(=O)c1cc(NC(=O)Nc2cc(C)ccn2)c(C)nc1C,0.2,15,.,-1.8,1,-7,-0.4
COC(=O)c1ccc(Cl)c(NC(=O)CN(c2ccc(OC)c(OC)c2)S(C)(=O)=O)c1,-0.7,-1,12%,-0.1,10,1,-1.8
O=C(O)COc1ccc(C=C2SC(=S)N(c3ccccc3)C2=O)cc1,.,.,-7%,1.4,.,1,.
CC1C(=O)Nc2ccc(S(=O)(=O)N3CCN(c4cccc(C(F)(F)F)c4)CC3)cc2NC1=O (stereo not given),-0.9,-9,3%,-0.6,4,12,-4.1
O=C(NNC(=O)C1CCN(C(=O)Nc2ccccc2)CC1)c1ccc(F)cc1,.,9,.,2.8,.,-4,7.2
Cc1ccc(NC(=O)CSc2nc(-c3ccco3)cc(C(F)(F)F)n2)cc1C,-2.9,-7,12%,2.8,-3,-16,4.9
Cc1cccc(C)c1OCC(=O)Nc1ncn[nH]1,0.5,-4,-1%,5.0,-20,-6,5.6
COc1ccc(-c2cc(C(F)(F)F)nc(SCC(N)=O)n2)cc1,3.2,-4,17%,-1.4,7,5,-2.0
N#CCCN(C(=O)COC(=O)Cc1ccc(Br)cc1)c1ccccc1,5.9,-11,.,0.9,37,-9,1.6
O=C(O)c1ccccc1C(=O)Nc1ccc(Nc2ccc([N+](=O)[O-])cc2[N+](=O)[O-])cc1,1.6,96*,-2%,1.2,2,-1,1.2
CN(C)C(=O)c1ccc2c(c1[N+](=O)[O-])C(=O)c1ccccc1C2=O,7.9,-18,.,-15,-3,3,-6.4
Fc1ccc(NC(=S)N2CCc3ccccc32)cc1,2.5,-3,.,2.4,1,8,-2.0
Cc1cc(NC(=O)Nc2cc(Cl)sc2Cl)no1,11,24,-6%,-3.0,-3,-3,0.9
CC1(c2ccncc2)Nc2ccccc2-c2nc3ccccc3n21 (stereo not given),-0.9,61,1%,2.7,-4,2,5.5
COc1ccc(CCNC(=S)N2CCC(Cc3ccccc3)CC2)cc1OC,3.0,3,-2%,0.8,21,2,-3.4
CCC(C)N1CC(C(=O)O)CC1=O (stereo not given),4.7,-5,30%,0.0,-10,-2,4.8
COc1cc([N+](=O)[O-])cc(CN2CCCCC2)c1O,-5.2,98*,-6%,-3.2,-7,3,-1.9
CC(C)OC(=O)Cn1c(=O)oc2ccccc21,1.3,-15,-4%,0.7,-2,5,3.1
Cc1ccc(NC(=O)COC(=O)CN2C(=O)NC3(CCCC3)C2=O)cc1Cl,.,.,.,1.6,.,4,1.0
O=C1C=CC(=O)N1c1ccc2ccccc2c1,.,.,-6%,-1.0,.,5,.
CC(=O)c1cccc(S(=O)(=O)N2CCC(C(=O)Nc3cccc(C(=O)NC4CC4)c3)CC2)c1,.,-4,-3%,-1.6,.,4,0.1
COC(=O)c1nn(-c2ccc(Cl)cc2)c(=O)cc1Sc1ccccn1,6.3,.,15%,-0.7,40,9,2.9
Cc1ccc(S(=O)(=O)/N=C(/Nc2nc(C)cs2)c2ccccc2)cc1,.,39,.,1.6,.,-4,-1.2
COc1ccc(-c2[nH]ncc2CN(C)Cc2cc(C)[nH]n2)c(F)c1,3.3,-3,2%,-1.3,-6,-2,2.3
Nc1nonc1-n1nnc(C(=O)N/N=C/c2cccs2)c1CSc1ccccc1,4.0,-2,.,0.4,7,-1,-5.1
COc1cc(OC)c(S(=O)(=O)N2CCN(C(=O)c3ccccc3F)CC2)cc1NC(C)=O,1.9,-5,5%,-4.7,2,-1,0.4
CCC(C)c1ccccc1OCCCCN1CCCC1 (stereo not given),-1.7,-1,-9%,-2.3,-26,-4,-3.2
CCCCN(C(=O)c1ccc(NC(=O)C(C)C)cc1)c1ccccc1,2.7,5,-7%,-3.9,9,95*,0.3
COc1ccc(Cn2c(O)c(C=Nc3ccc(OC)cc3)c3ccccc3c2=O)cc1,29*,-9,.,1.5,-9,-13,-0.7
Cc1cccc2[nH]c(SCC(=O)N3CCOCC3)nc12,-4.6,-13,-3%,0.4,-22,-5,1.0
O=c1c(C=NCc2ccccc2)c(NCc2ccccc2)nc2ccccn12,-12,-20,-3%,2.9,-5,25,3.2
CC(=O)Cc1cc(O)c2ccccc2c1OC(=O)c1ccccc1,-0.9,-11,.,-1.2,36,11,-4.4
Cc1ccc(-c2ncns2)cc1,-1.7,.,.,0.8,6,-2,2.5
Cc1ccc(C(=O)NCC(c2ccco2)N2CCc3ccccc32)cc1C (stereo not given),-0.7,6,2%,-0.9,-9,8,0.6
O=C(Cc1ccccc1F)NNC(=O)c1ccncc1,-1.7,0,-2%,-0.3,14,-4,-1.0
COc1ccccc1CC(NC(C)=O)C(=O)NC1CCN(C(=O)c2cccc(Cl)c2)CC1 (stereo not given),-0.6,-4,2%,2.8,-2,6,5.2
O=C(O)CCC(=O)N1CCCC1,2.5,0,8%,-1.5,-20,-9,2.0
CC(=O)/C(=C(/O)c1ccccc1)c1nc2ccccc2[nH]1,5.1,26,-3%,0.8,-4,-5,-7.3
CCC(=O)Nc1nnc(S(=O)(=O)N2c3ccccc3CC2C)s1 (stereo not given),3.0,-1,.,-0.1,-5,11,-1.6
Cc1cc(C)cc(OC(=O)CCN2C(=O)C3C4C=CC(C5CC45)C3C2=O)c1 (stereo not given),4.6,-2,-5%,5.6,3,-4,1.7
Cc1cc(C)c(S(=O)(=O)N2CCN(C(=O)c3ccc(-n4cncn4)c([N+](=O)[O-])c3)CC2)c(C)c1,5.6,-27,5%,2.2,3,1,1.0
